# Assay outcomes deposited in PubChem BioAssay by several laboratories.
# FGF22 binding: binders of recombinant human FGF22 by thermal shift; Q9HCT0; SYPRO orange fluorescence; percent of sucrose octasulfate shift, DMSO zero; hit rate 1.5% among 340,000; calls only at 9.99 µM;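 active means melting point raised past a set limit in the mean and every replicate; three in four hits are not shown here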
# Target sequence (Q9HCT0 whole entry, looked up): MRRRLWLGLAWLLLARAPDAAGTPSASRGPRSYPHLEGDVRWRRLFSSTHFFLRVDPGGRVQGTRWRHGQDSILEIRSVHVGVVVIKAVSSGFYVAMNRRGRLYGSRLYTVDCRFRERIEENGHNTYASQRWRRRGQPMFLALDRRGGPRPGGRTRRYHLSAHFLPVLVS
# HNF4A DNA FP: change in binding of human HNF4 alpha to DNA; activity change, % at 10 µM; hit rate 0.3% among 360,000; P41235; HNF4a-FITC DNA binding, fluorescence polarization, 1 h; in the data active means activity change above about 30%, passing the limit was not always enough;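 further: controls were the assay level and a saturating level of protein; the project sought stronger binding though the title names inhibitors; some compounds called inactive have numbers as strong as hits; positive values seem to mean higher polarization but the record does not say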
# Target sequence (P41235 whole entry, looked up): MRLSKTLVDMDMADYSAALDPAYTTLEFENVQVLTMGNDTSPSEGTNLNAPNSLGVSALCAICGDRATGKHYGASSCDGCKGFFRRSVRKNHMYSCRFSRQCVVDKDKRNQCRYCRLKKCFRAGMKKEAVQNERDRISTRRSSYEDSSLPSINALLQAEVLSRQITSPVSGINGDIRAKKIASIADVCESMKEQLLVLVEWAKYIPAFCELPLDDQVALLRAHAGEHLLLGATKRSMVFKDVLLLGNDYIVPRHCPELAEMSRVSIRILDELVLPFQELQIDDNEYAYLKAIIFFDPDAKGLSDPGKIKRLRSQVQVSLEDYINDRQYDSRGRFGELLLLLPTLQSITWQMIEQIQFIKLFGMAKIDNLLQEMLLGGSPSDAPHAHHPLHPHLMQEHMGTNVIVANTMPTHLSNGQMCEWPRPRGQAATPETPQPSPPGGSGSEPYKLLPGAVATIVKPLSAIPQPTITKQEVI
# Ecoli growth: blocks Escherichia coli growth; OD600, 23 h; active compounds read low; OD600 absorbance (no concentration beside the values); hit rate 0.21% among 330,000; AID 1053175;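 active means OD600 absorbance below the run mean of sample wells minus 3.6 SD, in any replicate, cut at about 0.56 in these data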;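 further: stock transfer was 300 nL into about 60 µL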
# ALR inh: human ALR oxidase inhibition via reduced H2O2. P55789. purified ALR, DTT oxidation, H2O2 HRP-luminol luminescence. inhibition, % (concentration not given with the values). hit rate 3.8% among 290,000;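 active means mean and each replicate at 75% or more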;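 further: stock transfer was 7.5 nL into about 7.5 µL; 0% = neutral wells and 100% = wells with inactivated enzyme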
# B2AR ag: agonists of human beta-2 adrenergic receptor inducing internalization; Am2.2-beta2AR cells, FAP receptor internalization, flow cytometry; reference of the scale not given here; hit rate 0.43% among 340,000; response, % (test concentration not listed);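 active means response above a set limit, near 3 SD of response in nonfluorescent compounds, cut at about 42% in these data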;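 further: stock transfer was 100 nL into about 11 µL; a reference agonist was the positive control; negative values mostly stem from fluorescent compounds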
# Target sequence (P07550 whole entry, looked up): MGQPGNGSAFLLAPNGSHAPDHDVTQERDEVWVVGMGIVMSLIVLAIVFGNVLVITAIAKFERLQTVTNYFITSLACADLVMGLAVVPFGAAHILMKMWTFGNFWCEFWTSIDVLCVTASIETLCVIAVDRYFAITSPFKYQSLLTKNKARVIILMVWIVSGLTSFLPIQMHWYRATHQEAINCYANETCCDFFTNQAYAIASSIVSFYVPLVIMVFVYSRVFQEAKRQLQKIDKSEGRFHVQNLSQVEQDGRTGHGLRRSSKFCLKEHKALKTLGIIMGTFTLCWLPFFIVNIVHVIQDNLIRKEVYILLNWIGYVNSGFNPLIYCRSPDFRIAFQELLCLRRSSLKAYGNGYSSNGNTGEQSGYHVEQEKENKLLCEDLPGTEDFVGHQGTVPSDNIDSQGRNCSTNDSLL
# rRNA inh HTS: inhibits bacterial ribosomal RNA function over humanized ribosomes; AID 720706; E. coli WT GFP vs humanized-ribosome RFP mutants, fluorescence, 24 h; active compounds read low; DMSO median 0, no signal -100; GFP signal change (wild-type ribosome), % (test concentration not listed); hit rate 1.6% among 350,000;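 active means significant combined selectivity score with lowered wild-type GFP, culture density cut under 30%, mutant RFP and density less affected; inactive means any of these conditions unmet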; further: one replicate is shown; some compounds called inactive have numbers as strong as hits
# UCH37 inh: blocks the human deubiquitinase UCH37; purified proteasome/UCH37, Ub-AMC cleavage fluorescence; inhibition, % (test concentration not listed); hit rate 0.33% among 330,000;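 active means mean of two replicates above 20%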;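 further: 0% = compound-free wells with enzyme and 100% = wells lacking proteasome; stock transfer was 100 nL into about 20 µL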
#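 Material: human UCH37 enzyme supplied as purified proteasome complex. Measure: % inhibition of Ub-AMC cleavage fluorescence. Medium: pH 7.4 Tris-HCl (50 mM) with ovalbumin, ATP-MgCl2, DTT. Times: 30 min preincubation with enzyme, 25 min cleavage at room temperature. Detection: AMC fluorescence intensity at 355/460 nm.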
# rRNA inh HTS OD600: further read-out of rRNA inh HTS, marked with its call; OD600 change, %; measured here: OD600 growth;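 optical density of the mix in the first replicate; 0 = DMSO median and -100 = no signal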
# rRNA inh HTS RFP: further read-out of rRNA inh HTS, marked with its call; RFP signal change, %; measured here: RFP humanized mutant strains;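 first replicate; 0 = DMSO median and -100 = no signal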
# Numbers without * were called inactive; i = inactive; / = not tested or not shown; & = joins results of further samples. Not all compounds are listed; count on the stated rates, not on these rows.
FGF22 binding	HNF4A DNA FP	Ecoli growth	ALR inh	B2AR ag	rRNA inh HTS	rRNA inh HTS OD600	rRNA inh HTS RFP	UCH37 inh	Molecule
i	-3.2	/	/	/	-6	-5	-0.7	/	CC(C)C1C(=O)N(Cc2cn(Cc3ccco3)nn2)CCS(=O)(=O)N1Cc1ccc(-c2ccc(F)nc2)cc1 (configuration not stated)
/	1.2	/	1	-2	/	/	/	/	COc1cc(OC)c(OC)cc1/C=N/NC(=O)c1ccc(=O)n(C)c1
/	1.2	0.69	-24	15	/	/	/	2.7	CCc1nnc(NS(=O)(=O)c2ccc(N/C=C\C(=O)c3cccc4ccccc34)cc2)s1
i	-0.2	0.66	/	1	5	8	2.1	0.4	O=C(NCC1COc2ccccc2O1)c1cccc(S(=O)(=O)N2CCOCC2)c1 (configuration not stated)
/	4.7	0.71	/	5	/	/	/	5.0	CCOC(=O)C1CN(S(=O)(=O)c2ccccc2)C1
/	0.4	0.68	/	1	/	/	/	3.1	Cc1ccc2cccc(Oc3nnnn3-c3ccccc3)c2n1
i	-3.0	0.61	-2	4	13	4	0.3	-4.6	Cc1cc(C(F)(F)F)nn2cnnc12
/	-3.3	0.72	-1	20	/	/	/	-22	CC(C)c1ccc(-c2c(C#N)c(N)nc3c2CCCCC3)cc1
/	1.2	0.68	-4	-1	/	/	/	1.0	CCOc1ccc(Br)cc1S(=O)(=O)Nc1cccc(S(=O)(=O)N(CC)CC)c1
i	1.7	0.72	-1	4	1	4	0.1	-4.5	CCC(C(=O)N1CCC(N2CCCCC2)CC1)n1nc(C)c2sc3ccccc3c2c1=O (configuration not stated)
i	3.4	0.7	-2	-1	-9	-3	-1.7	5.6	O=C(NC1CCCC1)C(c1ccsc1)N(CCc1ccccc1)C(=O)Cc1cccs1 (configuration not stated)
i	-0.2	0.66	-2	2	10	7	-0.5	0.7	COc1ccc(N(C)C(=O)C2CCN(S(=O)(=O)c3cccc4nsnc34)CC2)cc1
/	-2.5	0.64	-6	11	/	/	/	-0.7	COC(=O)c1cccc(NC(=O)CCNC(=O)c2ccc([N+](=O)[O-])cc2)c1
/	0.8	0.73	-8	-4	/	/	/	1.5	COc1ccc(S(=O)(=O)N(CCc2ccccc2)CC(=O)O)cc1OC
i	3.8	/	/	/	0	8	-4.5	/	O=C1c2ccccc2S(=O)N1c1cccc(F)c1 (configuration not stated)
i	-2.0	0.64	29	-2	/	/	/	4.1	O=C(c1cc(F)cc2c1OCOC2)N1CCN(c2ccc(F)cc2)CC1
i	5.1	0.68	10	-6	8	6	2.5	-1.7	COc1ccc2c(c1)CC/C(=C/c1ccco1)C2=O
/	-0.1	/	-2	-5	/	/	/	/	Cc1cccn2c(=O)c(/C=N/O)c(N3CCCC3)nc12
i	-2.9	0.77	-1	-4	11	11	-3.3	2.1	O=C(NCCS(=O)(=O)N1CCN(c2ccccc2F)CC1)C1CC(=O)N(c2ccc(F)cc2)C1 (configuration not stated)
/	-0.1	0.69	32	3	/	/	/	0.8	COC(=O)c1c(NC(NC(C)=O)C(Cl)(Cl)Cl)sc2c1CCCC2 (configuration not stated)
/	14	0.74	60	13	/	/	/	-1.1	CCOC(=O)c1sc(NCc2ccco2)c(-c2nc3ccccc3s2)c1N
/	-3.6	0.71	10	1	/	/	/	4.1	CCCN1C2=NCCN2c2ccccc21
i	3.9	0.66	-37	9	2	3	-0.2	-2.4	COc1ccc(OC)c(Nc2ncnc3sccc23)c1
i	-1.4	0.66	-1	-2	8	3	-3.7	7.2	Cc1nc2cc(Nc3ccncc3)ccc2s1
/	2.3	/	-4	0	/	/	/	/	Cn1ccs/c1=N\S(=O)(=O)c1ccc(Br)cc1
i	-0.4	0.65	/	6	9	2	6.5	2.0	O=S(=O)(c1ccccc1)N(CC(O)CN1CCCC1)c1ccccc1 (configuration not stated)
/	1.8	0.68	9	-7	/	/	/	2.4	CCc1nnc(NC(=O)CSc2nnc(Cc3ccc(OC)cc3)o2)s1
i	1.0	/	-2	1	0	-5	-1.1	/	COc1ccc(/C=N/OCC(=O)OCC(=O)N(C)c2ccccc2)cc1
/	0.2	/	-2	2	/	/	/	/	CC(C)C12CN3CCN(CC(C3)/C1=N\NC(=O)Nc1ccccc1)C2
/	3.0	0.72	2	-3	/	/	/	4.4	Cc1cc(Cl)c(S(=O)(=O)N2CCCC2)cc1OCC(=O)NC1CCCCC1

# Ordered by value in HNF4A DNA FP (high to low): some entries from above
FGF22 binding	HNF4A DNA FP	Ecoli growth	ALR inh	B2AR ag	rRNA inh HTS	rRNA inh HTS OD600	rRNA inh HTS RFP	UCH37 inh	Molecule
/	3.0	0.72	2	-3	/	/	/	4.4	Cc1cc(Cl)c(S(=O)(=O)N2CCCC2)cc1OCC(=O)NC1CCCCC1
i	-1.4	0.66	-1	-2	8	3	-3.7	7.2	Cc1nc2cc(Nc3ccncc3)ccc2s1
/	-3.6	0.71	10	1	/	/	/	4.1	CCCN1C2=NCCN2c2ccccc21

# Carrying on.
FGF22 binding	HNF4A DNA FP	Ecoli growth	ALR inh	B2AR ag	rRNA inh HTS	rRNA inh HTS OD600	rRNA inh HTS RFP	UCH37 inh	Molecule
i	-2.5	0.67	-7	-4	-3	-4	-0.4	2.8	O=C(Cn1cc(Cl)c([N+](=O)[O-])n1)NCCC1=CCCCC1
i	6.8	0.64	-4	-11	-3	-13	-0.8	0.2	Cc1ccc(CS(=O)Cc2ccc(C(=O)NCc3ccc4c(c3)OCO4)o2)cc1 (configuration not stated)
/	0.6	0.69	94*	0	/	/	/	1.5	O=c1oc2ccccc2c(Nc2ccc(O)cc2)c1[N+](=O)[O-]
i	-2.7	0.69	0	0	13	0	-1.6	3.4	CCN(CC)CC#Cc1ccc(C)cc1
i	-1.1	0.69	-3	0	-3	0	-7.3	2.1	O=C(Cc1c(F)cccc1Cl)N1CCCC1
i	-3.6	/	-2	0	6	8	0.8	/	Nc1nonc1-n1nnc(C(=O)N/N=C/c2c(F)cccc2Cl)c1-c1ccc2c(c1)OCO2
/	-1.9	0.68	-21	-15	/	/	/	-6.8	Cc1cc(=O)n2nc(-c3ccccc3)sc2c1C#N
i	-0.8	0.69	-1	5	6&3	9&12	2.7&-0.2	4.4	N=c1ccn2c(n1)O[C@H]1[C@H](O)[C@@H](CO)O[C@H]12
/	1.6	0.73	-7	-6	/	/	/	-0.9	CC(C(=O)NCc1ccccc1)N1C(=O)CN(C)C(=O)c2ccccc21 (configuration not stated)
i	-0.6	0.7	-6	-6	-30	-32	-0.5	4.9	COc1ccc(NC(=O)CN(C)CC(=O)Nc2ccc3c(c2)CCC3)cc1
i	-0.8	0.69	-1	-6	2	7	1.6	-0.7	O=C(COC(=O)COc1cccc(C(F)(F)F)c1)NC1CCCC1
i	-6.5	/	/	0	4	9	8.3	4.2	CCN1C[C@@H]2[C@@H]3C(=O)N(C)C(=O)[C@@H]3[C@](Cc3ccccc3)(C1=O)N2C(=O)c1ccc(C)cc1
i	-6.0	/	-6	-5	-23	-36	-14	2.6	COc1ccc([C@H]2CC(=O)C=C(c3cc(OC)ccc3OC)C2)cc1
/	0.7	0.68	-8	-3	/	/	/	-0.4	Clc1ccc(-n2nnnc2-c2ccccc2)cc1
i	0.2	0.62	1	1	7	5	1.0	3.9	COc1cccc(NC(=O)c2ccccc2N2C(=O)C3C4C=CC(C5CC45)C3C2=O)c1 (configuration not stated)
i	-0.1	0.7	-9	2	12	21	3.5	6.2	O=C(O)[C@H](Cc1ccccc1)NC(=O)N1CCCCCC1
/	-3.0	0.73	-19	5	/	/	/	2.4	CS(=O)(=O)N(Cc1ccccc1)c1ccc(C(=O)NCCSCc2ccco2)cc1
i	0.8	/	-5	-2	-12	8	-0.2	/	COc1ccccc1C(=O)N/N=C/c1ccc(Cl)s1
i	4.0	0.64	/	-1	6	2	-4.0	1.9	CC(C)C(=O)Nc1ccc(Br)cc1Cl
i	-0.1	0.67	-3	18	6	12	-1.5	2.3	CSc1ncccc1C(=O)OCC(=O)c1ccccc1
i	-3.4	0.7	/	-9	-3	-6	-6.6	5.8	CCN(CC)S(=O)(=O)c1ccc(N2CCCC2)c(NC(=O)CC(C)(C)C)c1
i	-1.1	0.67	-9	7	-12	-15	-3.5	1.1	c1ccc2c(c1)CCCN2c1nc(N2CCOCC2)nc(N2CCOCC2)n1
i	-1.1	0.64	/	-7	13	4	-0.2	3.3	CC(C)Cc1nnc(NC(=O)CCC(=O)Nc2ccc3cn[nH]c3c2)s1
/	-1.6	0.76	-2	3	/	/	/	-11	Cc1cccc[n+]1C1C(c2ccccc2)C(C#N)=C(C(=C=[N-])C#N)NC1(O)C1CC1 (configuration not stated)
/	-1.8	0.72	11	-3	/	/	/	0.0	O=C(NCC1CCCO1)c1onc(CSc2ccc(Cl)cc2)c1C(=O)O (configuration not stated)
i	1.5	0.68	2	5	-19	-26	-3.5	2.6	O=C(NCc1c(O)ccc2ccccc12)c1ccccc1
/	-1.3	0.67	8	-5	/	/	/	4.9	COc1ccc(C(=O)NNC(=S)NC2CCCCC2)cc1OC
i	4.0	0.74	5	4	-1	-3	0.6	3.4	Cc1cccc(NC(=O)Cn2c(=O)oc3cc(S(=O)(=O)N4CCCC4)ccc32)n1
/	0.7	0.75	92*	11	/	/	/	-92	O=C(COC(=O)c1cc(-c2ccc(Cl)s2)nc2ccccc12)NCc1ccco1
i	1.5	0.64	-11	-2	-21	-12	1.3	4.1	O=C1Nc2ccc(Br)cc2C1=Nc1cccnc1
/	-2.4	0.72	21	-11	/	/	/	-96	COC(=O)Nc1c(-c2ccccc2)nc2ccccn12
i	-7.6	0.66	-5	6	13	5	2.7	0.2	COc1cc(CC(NC(C)=O)C(=O)NC2CCN(C(=O)C3CC3)CC2)cc(OC)c1 (configuration not stated)
i	3.5	0.65	-11	7	3	0	-2.2	0.8	COc1ccc(CCC(=O)OCC(=O)Nc2ccc(OC)c(OC)c2)cc1OC
/	-3.1	0.74	/	-1	/	/	/	-1.1	O=C(CC(c1ccco1)S(=O)(=O)c1ccccc1)c1ccc(F)cc1 (configuration not stated)
i	-0.5	0.66	6	-6	14	17	2.5	-0.3	CCOP(=O)(OCC)C(Nc1ccccc1)c1ccco1 (configuration not stated)
i	0.2	0.73	-5	2	9	-1	0.2	1.5	COCCCC1CCN(C(=O)C2CCC(=O)N(CCc3cccc(F)c3)C2)CC1 (configuration not stated)
i	-0.6	0.72	-1	-6	-14	-7	-6.3	3.2	Oc1cccc(Oc2ncc(C(F)(F)F)cc2Cl)c1
/	-3.4	0.65	6	-1	/	/	/	1.9	CC(NCc1ccc2c(c1)OCO2)C(=O)N1CCc2ccccc21 (configuration not stated)
i	3.0	0.63	4	4	3	-8	-0.9	6.7	CC(=O)c1ccccc1OC(=O)c1c(F)cccc1F
/	-2.8	0.64	-4	-7	/	/	/	2.0	Cc1csc(NC(=O)CSc2nnnn2C)n1
i	-1.9	0.63	1	-21	-2	-1	0.0	5.1	O=C(CSc1nnc(NC(=O)C2CC2)s1)Nc1ccccc1C(F)(F)F
i	2.2	0.7	72	5	0	-3	-1.9	3.8	COc1ccc(/C=C/C2=Nc3ccccc3NC(C)(C)C2)cc1OC
/	12	0.71	-5	0	/	/	/	0.0	CCOC(=O)N1CCN(C(=O)CSc2nnc(CNC(=O)c3c(F)cccc3Cl)o2)CC1
